Lassa entry inh = qHTS for Inhibitors of binding or entry into cells for Lassa Virus; Lassa virus pseudotype entry inhibition, cell reporter; control for the full effect not named in the record; Potency, µM (series often up to 37.9 µM), inactives show at the top dose activity change, negative = inhibition, most hits filed as inhibitors; AID 540256, 2011; actives 1.2% (n = 300,000); active means well fitted inhibition curve with a large enough effect; inconclusive means small, poorly fitted or top-dose-only effect, or effect the other way; inactive means flat fitted curve, though single readings scatter; tested in HEK293 cells; note: % is set by controls: 0 for no effect and ±100 for the full control effect; nearly all actives have a fitted effect of over 50% in size; luciferase read-out
RE007 growth inh = qHTS Assay for Inhibitors of the HIV-1 protein Vpr; S. pombe RE007 Vpr strain, BacTiter-Glo ATP luminescence, 24 h; control for the full effect not named in the record; Potency, µM (titrated, usually from 92.2 µM), without a hit: at the highest dose activity change, negative = less growth; actives 0.21% (n = 360,000); AID 651644, 2012; active = well fitted falling curve with a large enough effect; inconclusive = small, poorly fitted or top-dose-only effect; inactive = no such curve, though single readings can be large or run the other way;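 note: % is set by controls: 0 for no effect and ±100 for the full control effect; nearly all actives have a fitted effect of over 50% in size; the assay follows cell death caused by Vpr and the record does not say whether a fall means rescue or toxicity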
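Fission yeast RE007 carrying one integrated HIV-1 vpr copy, seeded at OD 0.01 in PMG+AL medium with 23 nL pinned compound. Grown 24 h at 30 degrees; viability read by BacTiter-Glo luminescence after 5 min.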
NS1 function inh = qHTS Assay for Inhibitors of Influenza NS1 Protein Function | S. cerevisiae slowed by influenza A NS1, growth recovery by OD600 | Potency, µM (titrated, usually from 46.1 µM), without a hit: at the highest dose activity, positive = more growth | actives 0.4% (n = 270,000); active means well fitted rising curve with a large enough effect; inconclusive means small, poorly fitted or top-dose-only effect; inactive means no such curve, though single readings can be large or run the other way; note: nearly all actives have a fitted effect of over 50% in size
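Recovery from NS1-induced slow growth read by OD600 in budding yeast switched to galactose assay medium (pH 6.0, -URA) at 1:100 dilution. Compound 23 nl per well; the matching strain lacking NS1 serves as control.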
2A StopGo = High Throughput Screening for Foot and Mouth Disease Virus Antivirals; human cells with a luciferase reporter of 2A StopGo recoding; control for the full effect not named in the record; Potency, µM (titrated, usually from 57.9 µM), for the others: at the highest dose signal change, negative = less light; actives 1.2% (n = 410,000); active = well fitted falling curve with a large enough effect; inconclusive = small, poorly fitted or top-dose-only effect; inactive = no such curve, though single readings can be large or run the other way; tested in HEK293T cells; note: % is set by controls: 0 for no effect and ±100 for the full control effect; nearly all actives have a fitted effect of over 45% in size; luciferase light after 4 h
Cruzain Triton = qHTS Assay for Promiscuous and Specific Inhibitors of Cruzain (with detergent). Potency, µM, for inactives: max response, negative = inhibition, usual class: inhibitors. purified cruzain, Z-FR-AMC fluorescence, 0.01% Triton. Cruzipain (Trypanosoma cruzi), P25779. actives 0.43% (n = 200,000). AID 1478, 2009;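 note: plate controls were neutral wells for no effect and buffer without enzyme for full effect; nearly all actives have a fitted effect of over 40% in size; top concentration of the series not given in the record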
Target sequence (P25779 123-467 limits assumed): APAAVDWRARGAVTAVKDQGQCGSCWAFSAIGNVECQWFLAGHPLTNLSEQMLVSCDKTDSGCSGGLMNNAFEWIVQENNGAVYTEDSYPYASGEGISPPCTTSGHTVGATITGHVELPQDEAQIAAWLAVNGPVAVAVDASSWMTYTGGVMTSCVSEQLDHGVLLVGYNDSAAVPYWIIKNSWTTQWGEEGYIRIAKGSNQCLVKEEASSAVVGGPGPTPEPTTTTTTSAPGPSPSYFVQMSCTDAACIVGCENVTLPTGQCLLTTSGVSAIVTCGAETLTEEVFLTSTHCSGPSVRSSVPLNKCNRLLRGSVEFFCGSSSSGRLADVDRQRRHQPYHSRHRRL
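Cruzain (1.5 nM) preincubated 15 min at RT with compound in 100 mM sodium acetate pH 5.5, 5 mM DTT, 0.01% Triton X-100. Reaction started with 2 uM Z-FR-AMC; AMC fluorescence (ex 360/em 450 nm) change over 60 s gave rate.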
Marburg entry inh = qHTS for inhibitors of binding or entry into cells for Marburg Virus; Marburg virus pseudotyped entry inhibition, cell reporter; control for the full effect not named in the record; about a third of the inactives were read at about 46 µM; actives 1.8% (n = 300,000); AID 540276, 2011; Potency, µM (titrated, usually from 37.8 µM), for the others: top-dose activity change, negative = inhibition, usual class: inhibitors; active = well fitted inhibition curve with a large enough effect; inconclusive = small, poorly fitted or top-dose-only effect, or effect the other way; inactive = flat fitted curve, though single readings scatter; tested in HEK293 cells; about a fifth of its hits are not listed in these tables; note: % is set by controls: 0 for no effect and ±100 for the full control effect; luciferase read-out
SARS PLP yeast = qHTS of Yeast-based Assay for SARS-CoV PLP; S. cerevisiae expressing SARS-CoV PLpro, growth rescue; control for the full effect not named in the record; Potency, µM (highest dose often 32.9 µM), for the others: top-dose activity, positive = growth rescue; actives 0.19% (n = 330,000); active means well fitted rising curve with a large enough effect; inconclusive means small, poorly fitted or top-dose-only effect; inactive means no such curve, though single readings can be large or run the other way; note: 0% is about no effect; nearly all actives have a fitted effect of over 55% in size; growth read by luminescence after 48 h
Cruzain inh noDet = qHTS Assay for Promiscuous and Specific Inhibitors of Cruzain (without detergent); Cruzipain (Trypanosoma cruzi), P25779; purified cruzain, Z-FR-AMC fluorescence, no detergent; Potency, µM, inactives show max response, negative = inhibition, actives largely listed as inhibitors; actives 2.3% (n = 200,000);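 note: plate controls were enzyme without inhibitor for no effect and buffer without enzyme for full effect; nearly all actives have a fitted effect of over 40% in size; top concentration of the series not given in the record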
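Purified cruzain at 1.5 nM, pre-incubated 15 min with compound at room temperature in 100 mM sodium acetate pH 5.5, 5 mM DTT, 0.00005% Triton X-100. Reaction started with 2 uM Z-FR-AMC; AMC fluorescence increase over 60 s gives rate.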
* marks the source's active call; other numbers are inactive results; ? = inconclusive; / = not tested or not shown; & = joins results of further samples; [ ] = another dose, or the depositor's remark. Unless noted, calls come from the whole dose curve; as a rule, active = well fitted curve in the direction sought with a large enough effect; inconclusive = small, poorly fitted or top-dose-only effect, or another doubt; inactive = no such curve, though single readings can be large; an effect the other way counts as inactive or inconclusive. Potency is the fitted concentration of half-maximal effect.

item	SMILES	Lassa entry inh	RE007 growth inh	NS1 function inh	2A StopGo	Cruzain Triton	Marburg entry inh	SARS PLP yeast	Cruzain inh noDet
1	CCn1nnnc1SCCSc1nnnn1CC	-7%	-3%	0%	/	2.4%	2%	3%	2%
2	CCCCNc1ccc(C(CC(N)=O)NC(=O)c2cc(C)cc(C)c2)cc1[N+](=O)[O-] (stereo not given)	/	-3%	13%	-17%	/	/	-4%	/
3	CCCC(=O)C1C(=O)NC(=O)NC1=O	13%	22%	?	14%	7.9%	6%	6%	2%
4	CC(OC(=O)c1cccs1)C(=O)NCc1cccs1 (stereo not given)	11%	5%	5%	2%	8.2%	-3%	-10%	-7%
5	Cc1oc2c(C)c(O)ccc2c(=O)c1-c1ccc2ccccc2n1	-19%	-4%	2%	1%	1.7%	-7%	0%	?
6	CN1C(=O)C(CC(=O)NCCc2ccccc2)N(NC(=O)c2cccc(F)c2)C1=S (stereo not given)	-2%	2%	14%	1%	/	19%[46.1 µM]	0%	/
7	N#CCc1ccc(OC(=O)c2ccncc2)cc1	10%[46.1 µM]	12%	/	-1%	/	-7%[46.1 µM]	/	/
8	Cc1ccc(F)c([C@H]2[C@@H]3C=CCC[C@@]3(C)C(=O)N2Cc2ccccc2)c1	/	6%	5%	?	/	/	-15%	/
9	CCC(c1nnc(SCC(=O)Nc2cc(S(C)(=O)=O)ccc2Cl)n1Cc1ccccc1)N(C)C (stereo not given)	9%	0%	2%	-12%	/	10%	3%	/
10	COc1cccc(CNC2CN3CCC2CC3)c1OC (stereo not given)	0%	-4%	6%	/	1.7%	-2%	0%	-9%
11	Cc1ccc(OCC(=O)N2CCCC(N3CCN(c4ccc(F)cc4)CC3)C2)cc1 (stereo not given)	-23%[46.1 µM]	-9%	-20%	-26%	/	?	4%	/
12	CCCCOc1ccc(NC(=O)Cn2nnnc2-c2ccccc2F)cc1	-23%[46.1 µM]	/	/	-9%	-3.3%	3%[46.1 µM]	/	?
13	O=C(NCCN1CCCC1)c1ccc2c(c1)N(Cc1ccccc1)C(=O)c1ccccc1S2(=O)=O	/	-4%	-5%	2%	/	/	1%	/
14	CCOC(=O)N1CCC(NC(=O)c2oc3c(C)c(C)ccc3c2C)CC1	?	-12%	/	16%	/	0%	/	/
15	COc1ccc(S(=O)(=O)n2ccnc2C)c(C)c1C	/	-3%	3%	7%	/	/	-6%	/
16	COc1ccc(N2CCN(C(=O)COC(=O)Cc3ccc(F)cc3)CC2)cc1	-1%	-5%	/	?	/	6%	-5%	/
17	O=C(Cc1ccc(F)cc1)NCCS(=O)(=O)N1CCN(c2ccccc2)CC1	28%	72%	/	3%	/	?	-3%	/
18	CCCCCN(C(=O)CCC(=O)OCC(=O)N(C)Cc1ccccc1C)c1c(N)n(CCCC)c(=O)[nH]c1=O	18%	-1%	/	-17%	/	-1%	-1%	/
19	COC(=O)/C=C1\NCCNC1=O	6%	1%	5%	9%	/	3%	-1%	/
20	CC(C)C(c1nnnn1Cc1ccccc1)N1CCC(C(N)=O)CC1 (stereo not given)	3%	5%	-1%	-13%	3.1%	-8%	-7%	7%
21	Cc1ccc(S(=O)(=O)N2CCC(C(=O)Nc3ccccc3N3CCCC3)CC2)c(C)c1	-6%	0%	/	?	/	?	6%	/
22	Cc1cccc(OCC(=O)N2CCC(c3nc4ccccc4o3)CC2)c1C	-6%[46.1 µM]	/	/	-13%	-10.0%	13%[46.1 µM]	/	15%
23	CN(C)CCSc1nc(N)c2c3c(sc2n1)COC(C)(C)C3	2%	-9%	2%	-11%	-3.3%	?	-14%	3%
24	Cc1cc(C)c2nc(-c3ccccn3)cc(C(=O)Nn3cnnc3)c2c1	-1%	-19%	10%	6%	/	-18%[46.1 µM]	-1%	/
25	CN(c1ccc(OCC(=O)Nc2cc(Cl)ccc2C(=O)O)cc1)S(=O)(=O)c1ccc(F)cc1	-8%	-2%	/	14%	/	?	2%	/
26	CC(C)Oc1ccc(C(=O)OC(C)C(=O)Nc2nc(-c3cccc([N+](=O)[O-])c3)cs2)cc1 (stereo not given)	8%	8%	3%	0%	-1.8%	-18%	9%	?
27	COc1ccc(-c2cc(C#N)nc(NN)n2)cc1	?	-7%	?	-4%	/	?	-2%	/
28	COc1cc(C(=O)ONC(=O)c2ccc(OC(F)F)cc2)cc(OC)c1OC	9.2µM*	3%	-15%	-19%	/	?	-17%	/
29	Cc1cc(Nc2ccccc2N2CCOCC2)n2ncnc2n1	-3%	-24%	4%	32%[activator]	0.2%	-1%&-1%	1%	-9%
30	Cc1ccc2c(CC(=O)OC(C)C(=O)NCc3ccc4c(c3)OCO4)coc2c1 (stereo not given)	-2%	0%	-62%	-4%	-3.6%	2%	-10%	6%
31	O=C(Nc1nnc(S(=O)(=O)N2CCCCCC2)s1)c1ccc(Cl)cc1	-5%[46.1 µM]	4%	2%	-9%&6%	-1.6%	/	-5%	2%
32	COc1ccc(C2c3[nH]c4ccccc4c3CCN2C(=O)c2ccc(=O)n(C)n2)c(F)c1 (stereo not given)	?	-6%	12%	34%[activator]	/	?	-2%	/
33	O=C(CCCSc1nc2ccccc2[nH]1)Nc1nnc(C2CC2)s1	5%[46.1 µM]	1%	2%	0%	/	0%[46.1 µM]	0%	/
34	Cc1cc(C(C)(C)C)oc1C(=O)N1CCN(C(=O)c2oc(C(C)(C)C)cc2C)CC1	/	-2%	4%	?	0.4%	3%	3%	16%
35	O=[N+]([O-])c1ccc(CN2CCN(Cc3c[nH]c4ccccc34)CC2)cc1	-8%[46.1 µM]	-12%	/	20%	/	?	-4%	/
36	N=c1n(CCCOc2ccccc2Cl)c2ccccc2n1CC(N)=O	3%	-2%	3%	-13%	/	?	1%	/
37	CN1CCN(c2nc3c(c(=O)[nH]c(=O)n3C)n2CCCSc2ncccn2)CC1	7%	-4%	-3%	8%	0.7%	1%	-3%	-6%
38	CCOC(=O)C(=O)NC(C)c1ccccc1 (stereo not given)	4%[46.1 µM]	2%	/	24%	/	1%[46.1 µM]	-3%	/
39	CC(C)Cn1c(=O)c2ccccc2n2c(CCC(=O)N3CCN(c4ccccc4)CC3)nnc12	/	/	/	-13%	-0.1%	?	/	8%
40	Cc1ccc(NC(=O)COc2cccc(C)c2C)cc1S(=O)(=O)N1CCCCCC1	11µM*	27%	/	?	/	?	0%	/
41	CCCCNC(=O)N1CCN(C/C=C/c2ccccc2)CC1	/	-4%	-3%	-2%	/	/	0%	/
42	CC(=O)NC1=NN(C(C)=O)C(C)(CCS(=O)(=O)c2ccc(Cl)c(Cl)c2)S1 (stereo not given)	-2%	-16%	-8%	-12%	-3.1%	0%	16%	-3%
43	N#Cc1c(SCC(=O)Nc2cccc(C(F)(F)F)c2)sc2c(O)cc(=O)[nH]c12	19%[46.1 µM]	6%	11%	12%	/	3%[46.1 µM]	0%	/
44	O=C(NCc1ccc(Cl)s1)C1CCC(=O)N(CCc2ccccn2)C1 (stereo not given)	-3%[46.1 µM]	9%	-10%	7%	/	15%[46.1 µM]	-1%	/
45	Cc1ccc(NC(=O)C2CCN(S(=O)(=O)c3ccc(F)cc3)CC2)cc1	-15%	15%	-4%	-13%	3.2%	21%	10%	-1%
46	O=C(COC(=O)c1cc(Cl)ccc1Cl)NC1CCCC1	29%	-13%	-9%	-7%	/	4%[46.1 µM]	8%	/
47	Cc1nn(C)c2c1c(-c1ccccc1)cc(=O)n2Cc1ccc(Cl)cc1	?	/	/	-22%	-2.3%	/	/	-17%
48	O=S(=O)(c1ccccc1)N1CCN(C2CCCCCCC2)CC1	?	-2%	5%	-12%	-1.6%	?	?	-5%
49	CC(C)(C)OC(=O)NCc1ccc(NC(=O)c2nc[nH]c2C(=O)N[C@@H](Cc2ccccc2)C(=O)OC(C)(C)C)cc1	/	2%	?	0%	/	/	0%	/
50	CCOC(=O)N1CCN(C(=O)COc2cc(=O)n(CC)c3ccccc23)CC1	7%	0%	6%	20%	5.0%	17%	3%	1%
51	CCOC(=O)c1c(C)[nH]c(CCC(=O)Nc2cc(Cl)ccc2OC)c1C	?	/	/	-25%	-3.0%	/	/	-2%
52	O=C(c1ccco1)N1CCN(Cc2cccnc2)CC1	0%	4%	-2%	3%	-1.6%	10%&10%	-13%	1%
53	COc1ccc(NC(=O)C2CC(=O)OC23CCOC(C)(C)C3)cc1 (stereo not given)	17%	11%	1%	2%	-3.5%	1%	-4%	5%
54	Cc1ccc(S(=O)(=O)N[C@H](C(=O)N2CCC(C(=O)NCC(=O)O)CC2)C(C)C)cc1	-8%	7%	?	11%	3.9%	?	3%	7%
55	COc1ccc(CNC(=O)c2ccc3c(c2)N(Cc2ccccc2F)C(=O)c2ccccc2S3=O)cc1 (stereo not given)	-9%[46.1 µM]	/	/	-10%	0.5%	?	/	-6%
56	COc1ccccc1C1NC(=O)NC(C)=C1C(C)=O (stereo not given)	7%	-14%	-2%	?	0.0%	17%	-4%	-2%
57	COC(=O)CSc1nc(NC(C)C)nc(N(C)C)n1	0%[46.1 µM]	6%	/	24%	/	0%[46.1 µM]	-3%	/
58	O=C1c2ccccc2C(=O)N1CCN1CCOCC1	/	-10%	1%	0%	4.2%	/	9%	-10%
59	O=C(Nc1ccccc1NC(=O)c1ccccc1Cl)c1ccccc1Cl	/	24%	-3%	-8%	/	/	3%	/
60	COc1cc(NS(=O)(=O)c2cc3[nH]c(=O)[nH]c3cc2C)cc(OC)c1OC	0%[46.1 µM]	/	/	20%	2.8%	/	/	?
